High-throughput results: PubChem, Broad Institute
Env fusion inh: HIV envelope-mediated fusion inhibition. 360,000 compounds, 1.1% hits. HeLa-JRFL Env/CEM21 cell fusion, luciferase. inhibition, % at 12.3 µM;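 active = mean replicate inhibition score of at least 50 and every replicate individually at or above 50; inconclusive = only one of the two criteria met; inactive = mean below 50 and not all replicates reaching 50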;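 note: 0% = plate neutral controls and 100% = maraviroc near 300 nM; one replicate is shown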
Yeast UUG start: yeast start codon fidelity modulation | S. cerevisiae UUG-firefly luciferase reporter, luminescence/redox ratio | activity score, % at 18.7 µM | 350,000 compounds, 0.13% hits | AID 602363;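 active = replicate mean at a twofold rise or more, about +100% in these data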;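 note: firefly luciferase made from a UUG start codon reports start codon fidelity; reporter light over untreated wells divided by growth signal over untreated wells; some hits fall short of that in this replicate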
Numbers without * were called inactive; ? = inconclusive; [ ] = another dose, or the depositor's remark.

SMILES | Env fusion inh | Yeast UUG start
O=C(Nc1ccc2c(c1)[C@@H]1C[C@@H](CC(=O)N3CCOCC3)O[C@H](CO)[C@@H]1O2)C1CCC1 | -4.1[16.7 µM] | -11.5
COc1ccc(S(=O)(=O)N[C@H]2C=C[C@@H](CC(=O)N3CCC(Cc4ccccc4)CC3)O[C@@H]2CO)cc1 | 28.6[16.7 µM] | -2.4
COc1ccc(S(=O)(=O)N(C)C[C@H]2Oc3ccc(NC(=O)Cc4cn(C)c5ccccc45)cc3CC(=O)N([C@@H](C)CO)C[C@H]2C)cc1 | -23.1[16.7 µM] | -2.5
O=C(NCC[C@H]1CC[C@H](NC(=O)c2ccc3c(c2)OCO3)[C@@H](CO)O1)Nc1ccc(Cl)cc1 | -2.7[16.7 µM] | 25.4
C[C@H](CO)N1C[C@H](C)[C@H](CN(C)CC2CC2)Oc2ccc(NS(=O)(=O)c3ccc(Cl)cc3)cc2C1=O | -3.5[16.7 µM] | -11.2
Cc1noc(C)c1NC(=O)Nc1ccc2c(c1)CC(=O)N([C@H](C)CO)C[C@H](C)[C@@H](CN(C)C(=O)Nc1ccc(C(F)(F)F)cc1)O2 | -9.7[16.7 µM] | -1.3
C[C@H]1CN([C@@H](C)CO)C(=O)Cc2cc(NC(=O)CCN3CCOCC3)ccc2O[C@H]1CN(C)Cc1ccc(Oc2ccccc2)cc1 | 1.8[16.7 µM] | 0.4
Cc1ccc(S(=O)(=O)N[C@@H]2CC[C@@H](CCNC(=O)C3CCC3)O[C@@H]2CO)cc1 | 20.3[16.7 µM] | 0.5
CC(C)C#Cc1ccc([C@H]2[C@@H](C#N)N(C(=O)CN(C)C)[C@@H]2CO)cc1 | -32.9[16.7 µM] | 10.5
CCCNC(=O)C[C@H]1CC[C@H]2[C@@H](COc3ccc(NC(=O)Nc4ccccc4)cc3C(=O)N2C)O1 | 4.6[16.7 µM] | 3.0
C[C@H]1CN([C@@H](C)CO)C(=O)Cc2cc(NS(=O)(=O)c3cccs3)ccc2O[C@@H]1CN(C)S(=O)(=O)c1ccccc1 | 0.7[16.7 µM] | 7.1
COc1ccc(S(=O)(=O)N(C)C[C@H]2Oc3cc(C#CC4CCCC4)ccc3S(=O)(=O)N([C@H](C)CO)C[C@@H]2C)cc1 | 24.4[16.7 µM] | 1.5
C[C@H]1CN([C@@H](C)CO)S(=O)(=O)c2ccc(C3=CCCCC3)cc2O[C@H]1CN(C)C(=O)Cc1cccnc1 | 5.1[16.7 µM] | 1.2
N#C[C@H]1[C@@H](c2ccc(-c3ccccc3F)cc2)[C@@H](CO)N1C(=O)C1CC1 | -0.2[16.7 µM] | -4.4
COc1ccc(CN(C)C[C@H]2Oc3c(NS(=O)(=O)c4cccs4)cccc3C(=O)N([C@H](C)CO)C[C@H]2C)cc1 | 3.0[16.7 µM] | 0.3
C[C@H](CO)N1C[C@H](C)[C@H](CN(C)C(=O)c2ccccc2)Oc2cc(-c3cccc(C#N)c3)ccc2S1(=O)=O | -12.3[16.7 µM] | -18.7
C[C@@H]1CN([C@H](C)CO)C(=O)c2cc(NS(=O)(=O)c3ccc(Cl)cc3)ccc2O[C@@H]1CN(C)S(=O)(=O)c1ccc(F)cc1 | -19.5[16.7 µM] | 2.8
O=C(NCC[C@H]1CC[C@H](NS(=O)(=O)c2cccc(F)c2)[C@H](CO)O1)C1CCCCC1 | 13.4[16.7 µM] | 1.8
C[C@@H]1CCCCO[C@@H](CN(C)Cc2ccc(C(F)(F)F)cc2)[C@@H](C)CN([C@H](C)CO)C(=O)c2cc(NC(=O)c3ccccc3)ccc2O1 | 27.6[16.7 µM] | -7.0
C[C@H]1CN([C@@H](C)CO)C(=O)c2cc(NS(=O)(=O)c3ccc(F)cc3)ccc2O[C@@H]1CN(C)Cc1ccc(C(=O)Nc2ccccc2N)cc1 | 11.7[16.7 µM] | -0.7
O=S(=O)(c1ccc(-c2ccccc2)cc1)N1CCN(Cc2ccc(OCCO)cc2)CC1 | -15.1[16.7 µM] | -3.3
O=C(C[C@@H]1C[C@@H]2c3cc(NS(=O)(=O)c4ccccc4)ccc3O[C@@H]2[C@@H](CO)O1)NCC1CC1 | -2.5[16.7 µM] | 24.4
CN(C)CC(=O)N[C@H]1CC[C@H](CCNC(=O)C2CCCC2)O[C@@H]1CO | 11.9[16.7 µM] | -9.2
C[C@@H]1CN([C@@H](C)CO)C(=O)c2cc(NS(=O)(=O)c3ccccc3)ccc2O[C@@H](C)CCCCO[C@@H]1CN(C)Cc1ccc2c(c1)OCO2 | -95.4[16.7 µM] | 4.6

Reprinted from the part before: 3 entries, followed by the next part.
SMILES | Env fusion inh | Yeast UUG start
O=C(C[C@@H]1C[C@@H]2c3cc(NS(=O)(=O)c4ccccc4)ccc3O[C@@H]2[C@@H](CO)O1)NCC1CC1 | -2.5[16.7 µM] | 24.4
CN(C)CC(=O)N[C@H]1CC[C@H](CCNC(=O)C2CCCC2)O[C@@H]1CO | 11.9[16.7 µM] | -9.2
C[C@@H]1CN([C@@H](C)CO)C(=O)c2cc(NS(=O)(=O)c3ccccc3)ccc2O[C@@H](C)CCCCO[C@@H]1CN(C)Cc1ccc2c(c1)OCO2 | -95.4[16.7 µM] | 4.6
COc1ccc(CNC(=O)C[C@@H]2C=C[C@@H](NC(=O)c3ccc4c(c3)OCO4)[C@@H](CO)O2)cc1 | 4.0[16.7 µM] | 5.6
Cc1ccc(-c2cnc3c(c2)C(=O)N([C@H](C)CO)C[C@@H](C)[C@@H](CN(C)C(=O)c2cccc(F)c2)O3)cc1 | -12.1[16.7 µM] | -9.8
COc1ccc(NC(=O)Nc2ccc3c(c2)C(=O)N([C@H](C)CO)C[C@H](C)[C@@H](CN(C)C(=O)Nc2ccc4c(c2)OCO4)OCCCC[C@H](C)O3)cc1 | -3.0[16.7 µM] | -1.1
N#C[C@H]1[C@H](c2ccc(C#CC3CCCCC3)cc2)[C@@H](CO)N1C(=O)c1cccc(F)c1 | 8.1[16.7 µM] | 2.4
COc1ccc(S(=O)(=O)Nc2ccc3c(c2)C(=O)N([C@H](C)CO)C[C@H](C)[C@@H](CN(C)C(=O)Cc2ccccc2)OCCCC[C@@H](C)O3)cc1 | 5.4[16.7 µM] | -2.0
C[C@@H]1CCCCO[C@H](CN(C)C(=O)Cc2ccccc2)[C@H](C)CN([C@@H](C)CO)C(=O)c2cc(NS(=O)(=O)c3cn(C)cn3)ccc2O1 | -2.8[16.7 µM] | -3.2
CC(C)NC(=O)Nc1ccc2c(c1)C(=O)N([C@@H](C)CO)C[C@@H](C)[C@@H](CN(C)S(=O)(=O)c1cccs1)OCCCC[C@H](C)O2 | 8.8[16.7 µM] | -9.5
C[C@@H]1CCCCO[C@H](CN(C)Cc2ccncc2)[C@@H](C)CN([C@@H](C)CO)C(=O)c2cc(NS(=O)(=O)c3cccs3)ccc2O1 | -12.7[16.7 µM] | -3.3
COc1ccc(NC(=O)Nc2ccc3c(c2)C(=O)N([C@H](C)CO)C[C@H](C)[C@H](CN(C)C(=O)NC2CCCCC2)OCCCC[C@H](C)O3)cc1 | -0.2[16.7 µM] | -2.0
C[C@@H](NC(=O)C[C@@H]1CC[C@@H](NC(=O)Cc2ccccn2)[C@H](CO)O1)c1ccccc1 | 4.4[16.7 µM] | -12.5
CN(C)C(=O)C[C@@H]1CC[C@@H]2[C@H](COC[C@H](O)CN2Cc2ccc(C(F)(F)F)cc2)O1 | -1.8[16.7 µM] | 3.2
C[C@@H]1CCCCO[C@H](CN(C)C(=O)Nc2ccc(C(F)(F)F)cc2)[C@H](C)CN([C@@H](C)CO)C(=O)c2cc(NC(=O)NC3CCCCC3)ccc2O1 | 5.6[16.7 µM] | -10.9

2 of the compounds above, with values under each structure:
Values run as follows: Env fusion inh	Yeast UUG start
COc1ccc(CN(C)C[C@H]2Oc3c(NS(=O)(=O)c4cccs4)cccc3C(=O)N([C@H](C)CO)C[C@H]2C)cc1
    3.0[16.7 µM]	0.3
C[C@H](CO)N1C[C@H](C)[C@H](CN(C)C(=O)c2ccccc2)Oc2cc(-c3cccc(C#N)c3)ccc2S1(=O)=O
    -12.3[16.7 µM]	-18.7

Next results follow.
SMILES | Env fusion inh | Yeast UUG start
CCCNC(=O)C[C@H]1CC[C@@H]2[C@@H](COc3ccc(NC(=O)c4ccccc4)cc3C(=O)N2C)O1 | 3.6[16.7 µM] | 12.9
C[C@H](CO)N1C[C@H](C)[C@H](CN(C)C(=O)CN(C)C)Oc2cc(C#CC(C)(C)O)ccc2S1(=O)=O | -12.9[16.7 µM] | 8.0
CCCC(=O)Nc1ccc2c(c1)C(=O)N(C)[C@H]1CC[C@H](CC(=O)NCC(F)(F)F)O[C@@H]1CO2 | -4.5[16.7 µM] | -1.8
C[C@H]1CN([C@@H](C)CO)C(=O)c2cc(C#CCN(C)C)cnc2O[C@H]1CN(C)Cc1cccc(F)c1 | 3.4[16.7 µM] | 7.8
C[C@@H]1CN([C@@H](C)CO)S(=O)(=O)c2ccc(/C=C/c3ccccc3)cc2O[C@H]1CN(C)C(=O)c1ccccc1 | -12.8[16.7 µM] | -13.8
C[C@@H]1CN([C@@H](C)CO)C(=O)c2cc(NC(=O)NC3CCCCC3)ccc2O[C@H]1CN(C)C | -1.1[16.7 µM] | -11.0
C[C@@H]1CN([C@@H](C)CO)S(=O)(=O)c2ccc(/C=C/c3ccccc3)cc2O[C@H]1CN(C)C(=O)Nc1ccc(F)cc1 | -3.6[16.7 µM] | -11.3
Cc1ccc(S(=O)(=O)N(C)C[C@@H]2OCCCC[C@@H](C)Oc3ccc(NC(=O)NC(C)C)cc3C(=O)N([C@H](C)CO)C[C@@H]2C)cc1 | 9.7[16.7 µM] | 5.4
C[C@@H]1CN([C@@H](C)CO)C(=O)c2cc(C#Cc3cccc(F)c3)cnc2O[C@H]1CN(C)C(=O)c1ccccc1F | 15.2[16.7 µM] | -25.3
CC(C)NC(=O)Nc1cccc2c1O[C@@H](CN(C)S(=O)(=O)c1ccc(F)cc1)[C@H](C)CN([C@H](C)CO)C2=O | -24.0[16.7 µM] | 3.1
CCC(=O)N(C)C[C@@H]1Oc2ncc(-c3ccccc3C)cc2C(=O)N([C@H](C)CO)C[C@H]1C | -11.8[16.7 µM] | -4.5
C[C@H](CO)N1C[C@H](C)[C@H](CN(C)Cc2ccncc2)Oc2ccc(NC(=O)C3CC3)cc2CC1=O | -13.1[16.7 µM] | -11.1
O=C(NCC[C@H]1CC[C@H](NS(=O)(=O)c2cccc(F)c2)[C@@H](CO)O1)Nc1cc(F)ccc1F | -2.3[16.7 µM] | -5.1
O=S(=O)(N[C@H]1CC[C@H](CCn2cc(-c3ccccn3)nn2)O[C@H]1CO)c1cccc(F)c1 | 19.3[16.7 µM] | -3.1
C[C@@H]1CN([C@@H](C)CO)C(=O)c2cc(C3=CCCC3)cnc2O[C@@H]1CN(C)C(=O)CN(C)C | -10.5[16.7 µM] | 6.5
Cc1noc(C)c1S(=O)(=O)Nc1ccc2c(c1)CC(=O)N([C@H](C)CO)C[C@@H](C)[C@@H](CN(C)Cc1ccccc1)O2 | 1.4[16.7 µM] | -12.1
COc1ccccc1C(=O)Nc1ccc2c(c1)C(=O)N(C)C[C@@H](OC)[C@@H](C)CN(CC1CC1)[C@@H](C)CO2 | 2.5[16.7 µM] | 2.3
C[C@H]1CN([C@@H](C)CO)S(=O)(=O)c2ccc(C3=CCCCC3)cc2O[C@@H]1CN(C)C(=O)CC1CC1 | 7.8[16.7 µM] | 8.6
Cc1ccccc1S(=O)(=O)NCC[C@@H]1CC[C@@H](NC(=O)Nc2cccc(Cl)c2)[C@H](CO)O1 | -75.2[16.7 µM] | 6.6
C[C@@H]1CN([C@H](C)CO)C(=O)c2cc(NS(=O)(=O)c3ccccc3)ccc2O[C@@H]1CN(C)S(=O)(=O)c1ccccc1 | -5.9[16.7 µM] | 8.4
CCCNC(=O)N1[C@H](C#N)[C@H](c2ccc(-c3cccc(OC)c3)cc2)[C@@H]1CO | 58.2*[16.7 µM] | -8.5
C[C@H]1CCCCO[C@H](CN(C)C(=O)Nc2ccccc2)[C@@H](C)CN([C@@H](C)CO)C(=O)c2cc(NC(=O)CCC(F)(F)F)ccc2O1 | -11.5[16.7 µM] | 3.6
COCC#Cc1ccc2c(c1)O[C@H](CN(C)S(=O)(=O)c1ccc(C)cc1)[C@@H](C)CN([C@H](C)CO)S2(=O)=O | ? | 10.3
C[C@H](CO)N1C[C@H](C)[C@H](CN(C)Cc2ccc(C(F)(F)F)cc2)Oc2ccc(NC(=O)Cc3ccccc3)cc2C1=O | 16.3[16.7 µM] | 1.8
C[C@@H]1CN([C@@H](C)CO)C(=O)CCCn2nncc2CO[C@@H]1CN(C)Cc1ccc(C(=O)Nc2ccccc2N)cc1 | 4.7[16.7 µM] | -8.0
C[C@@H]1CN([C@H](C)CO)C(=O)c2cccc(NC(=O)Nc3ccc(F)cc3)c2O[C@H]1CN(C)Cc1ccccc1 | 30.7[16.7 µM] | -6.9
O=C(N[C@@H]1CC[C@H](CCn2cc(C3CCCCC3)nn2)O[C@H]1CO)c1cccnc1 | 20.1[16.7 µM] | 3.4
C[C@H](CO)N1C[C@H](C)[C@@H](CN(C)C(=O)NC2CCCCC2)Oc2ccc(NC(=O)C3CC3)cc2CC1=O | -7.9[16.7 µM] | 11.3
C[C@H]1CN([C@@H](C)CO)C(=O)c2cc(NC(=O)Cc3cn(C)c4ccccc34)ccc2O[C@H]1CN(C)C(=O)Nc1ccccc1 | -35.9[16.7 µM] | -10.5
CCCNC(=O)Nc1ccc2c(c1)C(=O)N(C)[C@H]1CC[C@H](CC(=O)Nc3cccc(C)c3)O[C@@H]1CO2 | 16.9[16.7 µM] | 4.5
COCCNC(=O)C[C@H]1C[C@@H]2c3cc(NC(=O)CC4CC4)ccc3O[C@@H]2[C@@H](CO)O1 | -1.1[16.7 µM] | -14.5
C[C@@H]1CCCCO[C@H](CN(C)C(=O)CCCN(C)C)[C@H](C)CN([C@@H](C)CO)C(=O)c2cc(NC(=O)c3ccccc3)ccc2O1 | -18.3[16.7 µM] | 11.0
COC(=O)C[C@@H]1CC[C@H]2[C@@H](COc3ccc(NC(=O)c4ccc(F)cc4)cc3C(=O)N2C)O1 | -25.9[16.7 µM] | -3.7

The list is partial, so the mix of outcomes need not match the whole.
